# AF4-AF9 inh – inhibitors of AF4 peptide binding to AF9, primary screen, biochemical, AlphaScreen, biotin-AF4 peptide, FLAG-AF9, single point. inhibition, % at 10 µM. 350,000 tested, 0.47% active. Protein AF-9 (Homo sapiens), P42568. AID 651704, 2012;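 active = every replicate reaching a set inhibition limit, whatever the replicate mean, cut at about 25% in these data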;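 also: 0% = plate neutral control median and 100% = total signal loss; the record names both 10 and 1 µM as test concentration; the first replicate is given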
# Target sequence (P42568 whole entry, looked up): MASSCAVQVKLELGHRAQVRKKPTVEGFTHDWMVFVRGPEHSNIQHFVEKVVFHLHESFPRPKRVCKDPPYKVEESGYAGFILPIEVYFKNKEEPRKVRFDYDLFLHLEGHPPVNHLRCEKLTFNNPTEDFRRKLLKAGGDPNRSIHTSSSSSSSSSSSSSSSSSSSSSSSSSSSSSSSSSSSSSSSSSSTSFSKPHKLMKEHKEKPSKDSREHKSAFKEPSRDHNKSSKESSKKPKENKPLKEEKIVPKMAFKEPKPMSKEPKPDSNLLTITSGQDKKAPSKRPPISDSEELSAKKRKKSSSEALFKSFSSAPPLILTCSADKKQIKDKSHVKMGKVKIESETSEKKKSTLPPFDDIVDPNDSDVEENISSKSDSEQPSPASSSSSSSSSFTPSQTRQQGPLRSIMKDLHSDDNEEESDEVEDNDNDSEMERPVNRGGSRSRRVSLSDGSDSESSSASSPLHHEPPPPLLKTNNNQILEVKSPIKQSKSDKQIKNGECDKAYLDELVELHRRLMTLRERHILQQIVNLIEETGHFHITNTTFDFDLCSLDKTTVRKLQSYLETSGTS
# FGF22 binding – binders of human FGF22 protein, primary screen, FGF22 synaptogenesis inhibitor project, biophysical, thermal shift, single point | Fibroblast growth factor 22 (Homo sapiens), Q9HCT0 | recombinant FGF22 thermal shift, SYPRO orange fluorescence; percent of sucrose octasulfate shift, DMSO zero | calls only at 9.99 µM | 340,000 tested, 1.5% active;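 active = melting point raised past a set limit in the mean and every replicate; three in four hits are not shown here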
# Target sequence (Q9HCT0 whole entry, looked up): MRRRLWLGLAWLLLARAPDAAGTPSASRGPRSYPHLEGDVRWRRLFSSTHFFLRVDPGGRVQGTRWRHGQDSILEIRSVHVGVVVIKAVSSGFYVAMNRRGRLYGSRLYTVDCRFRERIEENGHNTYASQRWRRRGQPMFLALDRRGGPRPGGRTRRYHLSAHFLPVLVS
# * marks the source's active call; other numbers are inactive results; i = inactive; + = active, no number; & = joins results of further samples.
SMILES,AF4-AF9 inh,FGF22 binding
CCCC#Cc1cnc2c(c1)C(=O)N([C@@H](C)CO)C[C@@H](C)[C@H](CN(C)C(=O)c1ccc3c(c1)OCO3)O2,1.1,i
COc1ccc(S(=O)(=O)N(C)C[C@@H]2Oc3c(NS(=O)(=O)c4c(C)noc4C)cccc3C(=O)N([C@H](C)CO)C[C@@H]2C)cc1,2.8,i
N#C[C@@H]1[C@H](c2ccc(C3=CCCCC3)cc2)[C@@H](CO)N1S(=O)(=O)c1cccc(F)c1,1.9,i
COc1ccc(C#Cc2ccc3c(c2)O[C@H](CN(C)S(=O)(=O)c2ccccc2F)[C@@H](C)CN([C@@H](C)CO)S3(=O)=O)cc1,-3.3,+
Cc1ccc(S[C@]2(C(=O)NCc3ccccc3)CC(=O)N(C3CCCCC3)[C@@H]2c2ccc(CO)cc2I)cc1,-10.2,i
C[C@@H]1CN([C@@H](C)CO)C(=O)c2ccccc2-c2ccccc2CO[C@@H]1CN(C)S(=O)(=O)c1cccs1,-11.9,i
C[C@@H]1CCCCO[C@H](CN(C)Cc2ccccc2)[C@H](C)CN([C@H](C)CO)C(=O)c2cc(NS(=O)(=O)c3cccs3)ccc2O1,5.0,i
CC(C)NC(=O)N(C)C[C@H]1Oc2ncc(C#CC3(O)CCCC3)cc2C(=O)N([C@@H](C)CO)C[C@H]1C,-3.2,i
COc1ccc(-c2cn(CC(=O)N3CCC4(CC3)C(=O)NCN4c3ccccc3)nn2)cc1OC,-0.5,i
C[C@H]1CN([C@@H](C)CO)C(=O)c2cc(NC(=O)Cc3cn(C)c4ccccc34)ccc2O[C@@H]1CN(C)Cc1ccc(Oc2ccccc2)cc1,9.5,i
C[C@H](CO)N1C[C@H](C)[C@H](CN(C)C(=O)NC2CCCCC2)Oc2ccc(NC(=O)CCN3CCOCC3)cc2C1=O,-1.8,i
CN(C)C(=O)C[C@@H]1CC[C@H](NC(=O)C2CCC2)[C@@H](CO)O1,-1.4,i
C[C@H](CO)N1C[C@H](C)[C@H](CN(C)S(=O)(=O)c2ccc(F)cc2)OCCCC[C@H](C)Oc2ccc(NC(=O)NC3CCCCC3)cc2C1=O,-0.7,i
COCC(=O)Nc1ccc2c(c1)OC[C@H](C)N(CC1CC1)C[C@@H](C)[C@@H](OC)CN(C)C2=O,-1.1,i
CN(C)CC(=O)Nc1ccc2c(c1)[C@H]1C[C@H](CC(=O)NCc3ccccc3)O[C@@H](CO)[C@H]1O2,2.3,i
CC(C)NC(=O)N(C)C[C@@H]1Oc2cc(-c3ccccc3)ccc2S(=O)(=O)N([C@H](C)CO)C[C@H]1C,1.0,i
N#C[C@H]1[C@@H](c2ccc(C3=CCCCC3)cc2)[C@@H](CO)N1S(=O)(=O)c1cccc(F)c1,2.3,i
O=C(C[C@H]1C[C@@H]2c3cc(NC(=O)CC4CC4)ccc3O[C@@H]2[C@@H](CO)O1)NCc1cccnc1,-0.2,i
O=C(N[C@@H]1CC[C@@H](CCn2cc(-c3cccnc3)nn2)O[C@H]1CO)c1ccccc1F,3.3,i
CCCNC(=O)N1CC2(C1)CN(C(=O)COC)[C@@H](CO)c1[nH]c3cc(OC)ccc3c12,-4.8,i
CCC(=O)N1C[C@@H](C)[C@H](OC)CN(C)C(=O)c2cc(NC(=O)c3ccccc3)ccc2OC[C@H]1C,-3.5,i
C[C@H]1CN([C@@H](C)CO)S(=O)(=O)c2ccc(Br)cc2O[C@@H]1CN(C)Cc1cccnc1,-0.3,i
O=C(N[C@@H]1CC[C@H](CCNS(=O)(=O)Cc2ccccc2)O[C@@H]1CO)c1ccccc1F,-2.4,i
C[C@@H]1CN([C@@H](C)CO)C(=O)c2cc(NS(=O)(=O)c3cn(C)cn3)ccc2O[C@@H](C)CCCCO[C@H]1CN(C)CC1CCCCC1,-3.2,i
CC(C)NC(=O)Nc1ccc2c(c1)CC(=O)N([C@H](C)CO)C[C@@H](C)[C@@H](CN(C)C(=O)Nc1ccc(C(F)(F)F)cc1)O2,-1.2,i
C[C@H](CO)N1C[C@H](C)[C@H](CN(C)S(=O)(=O)c2ccccc2)Oc2ncc(C#CCN(C)C)cc2C1=O,-1.6&-2.2,i
CCCN1C[C@@H](C)[C@H](OC)CN(C)C(=O)c2cc(NC(=O)Nc3c(C)noc3C)ccc2OC[C@@H]1C,-1.1,i
C/C=C/c1cnc2c(c1)C(=O)N([C@H](C)CO)C[C@H](C)[C@H](CN(C)S(=O)(=O)c1ccccc1)O2,-7.2,i
COc1ccccc1CN1[C@@H](CO)[C@@H]2c3ccccc3N(C(=O)C3CCCCC3)C[C@@H]21,4.0,i
O=S(=O)(N[C@H]1CC[C@H](CCn2cc(-c3cccnc3)nn2)O[C@@H]1CO)c1ccccc1,-1.4,i

# Arranged by value in AF4-AF9 inh (low to high): four from the list above.
SMILES	AF4-AF9 inh
C/C=C/c1cnc2c(c1)C(=O)N([C@H](C)CO)C[C@H](C)[C@H](CN(C)S(=O)(=O)c1ccccc1)O2	-7.2
CCC(=O)N1C[C@@H](C)[C@H](OC)CN(C)C(=O)c2cc(NC(=O)c3ccccc3)ccc2OC[C@H]1C	-3.5
C[C@@H]1CN([C@@H](C)CO)C(=O)c2cc(NS(=O)(=O)c3cn(C)cn3)ccc2O[C@@H](C)CCCCO[C@H]1CN(C)CC1CCCCC1	-3.2
O=S(=O)(N[C@H]1CC[C@H](CCn2cc(-c3cccnc3)nn2)O[C@@H]1CO)c1ccccc1	-1.4

# More structures follow.
SMILES,AF4-AF9 inh,FGF22 binding
C[C@@H]1CN([C@H](C)CO)C(=O)c2c(c3ccccc3n2C)-c2ccccc2CO[C@H]1CN(C)S(=O)(=O)c1cccc(F)c1,-2.7,i
C[C@H]1CN([C@@H](C)CO)C(=O)c2cccc(NC(=O)Nc3ccccc3)c2O[C@@H]1CN(C)Cc1ccc(C(F)(F)F)cc1,5.4,i
O=C(C[C@@H]1CC[C@@H]2[C@H](COC[C@H](O)CN2C(=O)Nc2ccc(C(F)(F)F)cc2)O1)NCC1CCCCC1,-2.5,i
O=C(Nc1ccccc1F)N1CCCCN2[C@H](CO)[C@@H](c3ccc(C4=CCCC4)cc3)[C@H]2C1,10.8,i
O=S(=O)(c1ccccc1F)N1CCCCN2[C@H](CO)[C@H](c3ccc(-c4ccncc4)cc3)[C@H]2C1,2.8,i
CC(C)(C)[Si](C)(C)OC[C@@H]1[C@H]2c3ccccc3O[C@]1(C)NC(=S)N2C(=O)c1ccccc1,0.5,i
CC(=O)c1ccc(N2CCN(C(=O)c3ccc4c(=O)[nH]c5c(C(=O)NC6CCCC6)sc(=S)n5c4c3)CC2)cc1,-1.3,i
COCC(=O)N(C)C[C@H]1[C@H](c2ccccc2)[C@@H](CO)N1C(=O)Cc1cccnc1,-1.6,i
C[C@H](CO)N1C[C@H](C)[C@@H](CN(C)Cc2ccncc2)Oc2c(NC(=O)c3nc4ccccc4s3)cccc2C1=O,7.6,i
O=C(C[C@@H]1C[C@H]2c3cc(NC(=O)c4ccc5c(c4)OCO5)ccc3O[C@H]2[C@H](CO)O1)NCCc1ccccc1,-6.8,i
C[C@@H]1CN([C@H](C)CO)S(=O)(=O)c2ccc(-c3ccc(C#N)cc3)cc2O[C@@H]1CN(C)C(=O)CN(C)C,1.3,i
CCC(=O)N(C)C[C@H]1Oc2cc(C#CC3(O)CCCC3)ccc2S(=O)(=O)N([C@@H](C)CO)C[C@H]1C,-2.5,i
C[C@@H]1CN([C@H](C)CO)C(=O)Cc2cc(NC(=O)Nc3ccc(C(F)(F)F)cc3)ccc2O[C@H]1CN(C)CC1CC1,-2.9,i
Cc1noc(C)c1S(=O)(=O)N(C)C[C@@H]1OCCCC[C@H](C)Oc2ccc(NC(=O)Nc3ccccc3)cc2C(=O)N([C@H](C)CO)C[C@H]1C,4.5,i
COc1ccc2c3c(n(C)c2c1)[C@H](CO)N(S(=O)(=O)c1ccccc1)CC31CCN(C)CC1,8.4,i
C[C@@H]1CN([C@@H](C)CO)C(=O)c2cc(NS(=O)(=O)c3ccc(F)cc3)ccc2O[C@H]1CN(C)C(=O)Nc1ccc2c(c1)OCO2,-0.4,i
CCCC#Cc1cnc2c(c1)C(=O)N([C@@H](C)CO)C[C@@H](C)[C@H](CN(C)Cc1ccncc1)O2,-1.5,i
COCC(=O)Nc1ccc2c(c1)OC[C@H](C)N(Cc1cccc(F)c1)C[C@H](C)[C@@H](OC)CN(C)C2=O,-0.6,i
COCC(=O)N1[C@H](CO)[C@H](c2ccccc2)C12CN(C(=O)Cc1ccccn1)C2,-0.5,i
C[C@@H]1COc2cccc(N3CCCCC3)c2S(=O)(=O)N1,-0.8,i
COc1cccc(-c2ccc3c(c2)O[C@H](CN(C)CC2CC2)[C@H](C)CN([C@@H](C)CO)S3(=O)=O)c1,4.7,i
C[C@@H]1CN([C@@H](C)CO)C(=O)c2c(c3ccccc3n2C)-c2ccccc2CO[C@@H]1CN(C)S(=O)(=O)c1cn(C)cn1,-0.3,i
C[C@@H]1CN([C@H](C)CO)C(=O)c2cccc(NC(=O)c3ccncc3)c2O[C@H]1CN(C)Cc1ccc(C(F)(F)F)cc1,2.3,i
Cc1noc(C)c1S(=O)(=O)Nc1ccc2c(c1)C(=O)N([C@@H](C)CO)C[C@@H](C)[C@H](CN(C)CC1CCCCC1)OCCCC[C@@H](C)O2,0.4,i
O=C(C[C@H]1C=C[C@@H](NC(=O)c2ccccc2)[C@H](CO)O1)NCc1ccc(Oc2ccccc2)cc1,-2.7,i
C[C@@H]1CCCCO[C@@H](CN(C)C)[C@@H](C)CN([C@@H](C)CO)C(=O)c2cc(NC(=O)Nc3cccc4ccccc34)ccc2O1,5.3,i
CN1[C@H](C(=O)NCc2ccc(F)cc2)[C@@H](CO)[C@@H]2Cn3c(ccc(-c4ccccc4F)c3=O)[C@@H]21,-4.4,i
O=C(C[C@@H]1C[C@H]2c3cc(NC(=O)C4CCC4)ccc3O[C@H]2[C@@H](CO)O1)NC1CCCCC1,-2.2,i
C[C@H]1CN([C@@H](C)CO)S(=O)(=O)c2ccc(C#CC3CCCCC3)cc2O[C@H]1CN(C)Cc1cccnc1,6.8,i
O=C(C[C@@H]1C=C[C@@H](NC(=O)Cc2ccccn2)[C@H](CO)O1)NCCCN1CCOCC1,-0.6,i

# Rewritten field by field: part of the list above.
SMILES: C[C@@H]1CCCCO[C@@H](CN(C)C)[C@@H](C)CN([C@@H](C)CO)C(=O)c2cc(NC(=O)Nc3cccc4ccccc34)ccc2O1
  AF4-AF9 inh: 5.3
  FGF22 binding: i

SMILES: CN1[C@H](C(=O)NCc2ccc(F)cc2)[C@@H](CO)[C@@H]2Cn3c(ccc(-c4ccccc4F)c3=O)[C@@H]21
  AF4-AF9 inh: -4.4
  FGF22 binding: i

SMILES: O=C(C[C@@H]1C[C@H]2c3cc(NC(=O)C4CCC4)ccc3O[C@H]2[C@@H](CO)O1)NC1CCCCC1
  AF4-AF9 inh: -2.2
  FGF22 binding: i

SMILES: C[C@H]1CN([C@@H](C)CO)S(=O)(=O)c2ccc(C#CC3CCCCC3)cc2O[C@H]1CN(C)Cc1cccnc1
  AF4-AF9 inh: 6.8
  FGF22 binding: i

# (list continues)
SMILES,AF4-AF9 inh,FGF22 binding
COc1ccc(NC(=O)N(C)C[C@@H]2Oc3c(NC(=O)c4cnccn4)cccc3C(=O)N([C@@H](C)CO)C[C@@H]2C)cc1,-5.4,i
C[C@@H]1CN([C@H](C)CO)C(=O)c2cc(NC(=O)C3CCCCC3)ccc2O[C@@H](C)CCCCO[C@H]1CN(C)C(=O)Nc1ccccc1,0.3,i
Cc1cccc(S(=O)(=O)N2C[C@H]3[C@@H](c4ccccc42)[C@@H](CO)N3CC2CCOCC2)c1,1.1,i
CN(C)CC(=O)N1[C@@H](C#N)[C@@H](c2ccccc2-c2cccc(C(=O)N(C)C)c2)[C@@H]1CO,-3.2,i
Cc1ccc(S(=O)(=O)Nc2ccc3c(c2)C(=O)N([C@H](C)CO)C[C@@H](C)[C@@H](CN(C)S(=O)(=O)c2ccc(C)cc2)OCCCC[C@H](C)O3)cc1,1.5,i
C[C@@H]1CN([C@H](C)CO)C(=O)c2cccc(NS(=O)(=O)c3ccc(Cl)cc3)c2O[C@@H]1CN(C)C,-2.9,i
C[C@@H]1CCCCO[C@@H](CN(C)C(=O)Cc2ccccc2)[C@H](C)CN([C@@H](C)CO)C(=O)c2cc(NC(=O)Nc3ccccc3)ccc2O1,0.1,i
COc1ccc(NC(=O)N(C)C[C@@H]2OCCCC[C@@H](C)Oc3ccc(NC(=O)NC4CCCCC4)cc3C(=O)N([C@H](C)CO)C[C@H]2C)cc1,0.6,i
C[C@@H]1CN([C@@H](C)CO)C(=O)c2cc(NC(=O)C3CCCCC3)ccc2O[C@@H]1CN(C)Cc1ccc(-c2ccccc2)cc1,1.8,i
C[C@H](CO)N1C[C@H](C)[C@H](CN(C)Cc2ccccc2)Oc2c(NS(=O)(=O)c3ccc(Cl)cc3)cccc2C1=O,2.7,i
C[C@H]1CN([C@@H](C)CO)C(=O)c2c(c3ccccc3n2C)-c2ccccc2CO[C@H]1CN(C)S(=O)(=O)Cc1ccccc1,-0.4,i
CC(C)NC(=O)N[C@@H]1CC[C@H](CCn2cc(-c3ccc(F)cc3)nn2)O[C@H]1CO,-1.5,i
Cc1noc(C)c1NC(=O)N(C)C[C@H]1OCCCC[C@@H](C)Oc2ccc(NC(=O)Nc3ccc(C(F)(F)F)cc3)cc2C(=O)N([C@@H](C)CO)C[C@H]1C,3.6,i
C[C@@H]1CN([C@@H](C)CO)C(=O)c2cc(NS(=O)(=O)c3ccccc3)ccc2O[C@@H](C)CCCCO[C@H]1CN(C)C(=O)c1ccncc1,-1.8,i
CCCNC(=O)Nc1ccc2c(c1)C(=O)N(C)C[C@@H](OC)[C@H](C)CN(C(=O)c1ccccc1F)[C@@H](C)CO2,1.1,i

# Bioassay records: PubChem, Broad Institute

# Not all compounds are listed; count on the stated rates, not on these rows.
